Sa ugtP lethal – growth inhibition of ugtP-null S. aureus, primary screen, RN4220 ugtP deletion, OD600 | 16 h; some inactives read as strong as hits | growth inhibition, % (no concentration beside the values) | 330,000 compounds, 0.54% hits;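 active means z-score under -3 and OD600 up to 0.15 on both plates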;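 further: plate controls were untreated wells for no effect and antibiotic for full effect; wells of about 80 µL received 100 nL stock; the first replicate is given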
BJeLR lethal – MLPCN primary cell-based screen for lethality selective to Ras in HRASV12 cells; AID 1554, 2009; BJeLR (HRASV12) viability, CellTiter-Glo ATP luminescence, 48 h; reference of the scale not given here; 300,000 compounds, 0.17% hits; inhibition, % (test concentration not listed);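 active means replicate mean above 50%; inconclusive means above 50% but judged a plate artefact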;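 further: 50 nL library stock added to about 25 µL; numbers are from one replicate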
PrP 5UTR inh – inhibition of PrP 5' UTR reporter expression | AID 488862, 2010 | inhibition, % (concentration not given with the values) | 340,000 compounds, 0.35% hits | cell-based PrP 5' UTR mRNA reporter, plate reader;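 active means every replicate at 50% or more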;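 further: 0 = median of the neutral control wells; tested in H4 reporter cells; numbers are from one replicate; inactives centre near -14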
Mtb hypoxia rep – PubChem AID 1159583 | M. tuberculosis hypoxia-regulated fluorescent reporter, fluorescence | 300,000 compounds, 0.1% hits | fluorescence inhibition, % (concentration not given with the values);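 active means 35 to 45% if threefold the growth effect, above 45% if 1.5-fold the growth effect; inactive means the rest, general growth blockers included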;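 further: wells of about 50 µL received 100 nL stock; 0% = vehicle wells and 100% = reference inhibitor wells; whole bacteria with a GFP reporter of the hypoxia response; strong numbers were not always called active; many hits fall short of the cut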
Bead autofluor – counter-screen for toxin protease inhibitors: compound fluorescence; compound autofluorescence counterscreen, microsphere flow cytometry; hits give high values; fluorescence intensity (test concentration not listed); 360,000 compounds, 3.1% hits; AID 624483;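 active means at least 3 SD above the mean of all compounds, about 16000 in these data; inconclusive means too few beads counted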;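 further: 100 nL of 1 mM stock went into each well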
RN4220 kill – growth inhibition of S. aureus RN4220, primary screen, OD600; inhibition, % (test concentration not listed); 330,000 compounds, 0.33% hits; 16 h;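 active means z-score of -3 or lower and OD600 up to 0.18 on both plates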;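 further: plate controls were untreated cells for no effect and reference antibiotic for full effect; stock transfer was 100 nL into about 80 µL; one replicate is shown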
Mtb hypoxia rep growth – also measured in Mtb hypoxia rep; calls as there; growth inhibition, %; measured here: M. tuberculosis growth (absorbance);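 0% = vehicle and 100% = reference antibiotic; read after six days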
An asterisk follows results filed as active; ? = inconclusive; / = not tested or not shown; & = joins results of further samples.

SMILES | Sa ugtP lethal | BJeLR lethal | PrP 5UTR inh | Mtb hypoxia rep | Mtb hypoxia rep growth | Bead autofluor | RN4220 kill
CCOC(=O)N1CCC(NC(=O)Cn2ncc3c2-c2cc(C)ccc2OC3)CC1 | -3 | -5 | -7 | 3 | 5 | 5781 | -6.0
CN1C(=O)c2ccc(NC(=O)c3c(C(=O)O)cccc3[N+](=O)[O-])cc2C1=O | 6 | -5 | -28 | 2 | -5 | 2895 | 0.2
Cc1ccc([N+](=O)[O-])cc1-c1ccc(/C=N/NC(=O)c2cc3c(ccc4ccccc43)o2)o1 | / | -2 | -17 | / | / | 2532 | /
C=CCn1c(N)cc(=O)nc1SC(CC)C(=O)Nc1ccc(C(C)=O)cc1 (configuration not stated) | -1 | 1 | -10 | -10 | 7 | 4274 | -1.5
COc1ccc(S(=O)(=O)Nc2ccccc2OC)cc1N=Nc1c(O)[nH]c(=S)[nH]c1=O | 2 | / | -22 | 15 | 4 | 4128 | 11
COc1ccc(S(=O)(=O)NC2CC(C)(C)NC(C)(C)C2)cc1C(C)C | -10 | 2 | -3 | 11 | 3 | 6289 | 1.2
O=c1ncn(-c2ccc(F)cc2)c2ncccc12 | -6 | -8 | -19 | 3 | 8 | 20412* | 6.5
CCCCOc1ccc(/C=C/C(=O)OCC(=O)c2c(N)n(C)c(=O)n(C)c2=O)cc1OCC | / | 2 | -2 | / | / | 4203 | /
Cn1c(=O)[nH]c(=O)c2c1nc(Br)n2CCCSc1nc2ccccc2o1 | 12 | 12 | -7 | 7 | 5 | 17409* | 2.3
COc1ccc(C=NN2CCN(C3c4ccccc4-c4ccccc43)CC2)cc1O | -2 | / | / | -5 | 0 | / | 6.2
Cc1nc(-c2ccc(C#N)cc2)cs1 | 2 | -3 | -5 | -1 | 6 | 6154 | 5.2
c1ccc2c(Nc3nnc(-c4ccncc4)s3)cccc2c1 | -11 | -5 | -37 | -1 | 11 | 11910 | 5.1
O=C(c1ccc2c(=O)n(-c3ccccc3)c(=S)[nH]c2c1)N1CCN(c2ccccc2)CC1 | 0 | / | / | 9 | 5 | ? | 0.7
Cc1cc(C)n(-c2ccc(F)cc2)c(=O)c1C(=O)O | -3 | -13 | 6 | -8 | 4 | 3670 | 2.4
O=C(O)c1cc2ccc3ccccc3c2oc1=O | -12 | -6 | -9 | / | / | 2775 | -0.8
CCN(CC)CCN1C(=O)c2ccccc2NC1c1ccc(N(C)C)cc1 (configuration not stated) | 6 | 5 | -43 | / | / | 2336 | -0.5
Cc1ccc(-c2nc(C#N)c(NCCN3CCCCC3)o2)cc1 | 10 | 13 | -28 | 5 | -2 | 22423* | 1.8
Cc1cc(C)c(S(=O)(=O)Nc2c(C)[nH]c(=O)[nH]c2=O)c(C)c1 | 7 | -4 | -5 | 13 | 11 | 9688 | 5.9
CCOc1cc(CN2CCCCC2)ccc1OC | 5 | -4 | -3 | 3 | -6 | 11060 | -1.0
CCOC1OC(C(=O)N2CCCCCCC2)=CC(c2ccc(C(F)(F)F)cc2)C1CCCO (configuration not stated) | 6&-13 | / | / | 4&7 | 19&6 | / | 6.8&7.4
COc1ccc(NC(=O)C2=C(C)NC(=O)NC2c2ccccc2[N+](=O)[O-])cc1 (configuration not stated) | 4 | 11 | -2 | 16 | -10 | 4057 | 1.2
Cc1cc(NS(=O)(=O)c2ccc(NC(=S)NC(=O)c3ccc(Cl)cc3Cl)cc2)no1 | 21 | 2 | -9 | / | / | 2694 | 14
COc1ccc(NC(=O)CN(C)S(=O)(=O)c2ccc(Br)s2)cc1OC | 11 | -2 | 6 | 3 | -4 | 3079 | 2.3
O=C(COc1ccccc1)Nc1nnc(S(=O)(=O)N2CCCCC2)s1 | -1 | 0 | -20 | -11 | 1 | 5606 | 3.4
N#Cc1ccc(CSc2nnc(-c3ccccc3)n2Cc2ccco2)cc1 | 0 | -7 | -6 | 5 | 4 | 24109* | 2.3
CCOC(=O)Cn1c(=O)oc2cc(S(=O)(=O)NCC3CCCO3)ccc21 (configuration not stated) | -13 | -12 | -38 | -9 | -1 | 4371 | 3.5
O=C(c1ccc(S(=O)(=O)Nc2ccccc2F)cc1)N1CCCCCC1 | 4 | 6 | -7 | 5 | 4 | 5518 | 11
COc1cccc(CNC(=O)C2CCN(S(=O)(=O)c3ccc4c(c3)CC(C)N4C(=O)C3CC3)CC2)c1 (configuration not stated) | 14 | -4 | -4 | 10 | 9 | 3949 | 6.8
O=C(c1ccccc1)C1CCN(C(=O)c2cccs2)CC1 | 10 | 6 | -4 | 12 | 4 | 3369 | 4.9
Cc1nc2ccc(S(=O)(=O)NC(C(=O)N3CCC(C)CC3)C(C)C)cc2s1 (configuration not stated) | -10 | -3 | 6 | / | / | 5493 | 11
CCS(=O)(=O)N1CCN(CC(=O)NC2CCCCC2)CC1 | 7 | 1 | -3 | -4 | 12 | 4028 | 6.2
CCOC(=O)Cc1csc(NC(=O)c2c(O)c3ccccc3n(CC(C)C)c2=O)n1 | 98* | -3 | -11 | 20 | 3 | 4484 | 97*
CC1CCc2c(sc(NC(=O)c3ccc(Cn4cc([N+](=O)[O-])cn4)o3)c2C#N)C1 (configuration not stated) | 12 | 0 | -20 | / | / | 2947 | -13
Cc1ccc2c(c1)nnn2C1CCN(S(=O)(=O)c2ccc3ccccc3c2)CC1 | -2 | 9 | -23 | 9 | -5 | 10601 | -4.2
CO/N=C/C(=N\Nc1ccccc1)C(=O)c1ccccc1 | / | -2 | -22 | / | / | 4633 | /
CCCCOC(=O)n1c(=O)oc2ccccc21 | 8 | -12 | -22 | / | / | 4888 | 2.3
CC(=NNC(=O)CNC(=O)C1COc2ccccc2O1)c1ccc2c(c1)OCCO2 (configuration not stated) | -4 | / | / | 7 | -5 | / | 1.0
COc1ccc(C)cc1S(=O)(=O)Nc1ccc2c(c1)N(C(C)=O)CCC2 | 2 | 3 | -1 | 5 | -2 | 6699 | 1.9
COc1cc2c(cc1OC)[C@H](C)N(C(=S)Nc1ccc(F)cc1)CC2 | 4 | -7 | / | 6 | -12 | 5661 | 0.7
C=CCn1c(SCC(=O)c2c(N)n(C3CC3)c(=O)[nH]c2=O)nnc1-c1ccccc1OC | 7 | / | -14 | -1 | -1 | / | 5.8
c1ccc2c(c1)-c1cccc3cncc-2c13 | 15 | / | -22 | / | / | 3578 | 0.5
Cc1ccc(S(=O)(=O)N2CCC[C@H]2C(=O)OCC(=O)c2ccc3c(c2)NC(=O)CO3)cc1 | 5 | -7 | -15 | 9 | -4 | 4147 | 3.6
CCOc1ccccc1Nc1nc(N)nc(CSc2nccc(C)n2)n1 | 2 | -26 | -10 | / | / | 4788 | -0.6
C/C(=N\NC(=O)c1ccccc1N)c1ccc(NC(=O)Cc2ccccc2)cc1 | / | 7 | -35 | / | / | 5826 | /
CC(C)(C)c1ccc(CSc2ccc(S(=O)(=O)N3CCOCC3)cn2)cc1 | 31 | / | -15 | 3 | 15 | 8470 | 7.8

Entries of single compounds from above. Order of values: Sa ugtP lethal, BJeLR lethal, PrP 5UTR inh, Mtb hypoxia rep, Mtb hypoxia rep growth, Bead autofluor, RN4220 kill
Shown for CC1CCc2c(sc(NC(=O)c3ccc(Cn4cc([N+](=O)[O-])cn4)o3)c2C#N)C1 (configuration not stated) = 12, 0, -20, /, /, 2947, -13
Shown for Cc1ccc(-c2nc(C#N)c(NCCN3CCCCC3)o2)cc1 = 10, 13, -28, 5, -2, 22423*, 1.8
Shown for CCN(CC)CCN1C(=O)c2ccccc2NC1c1ccc(N(C)C)cc1 (configuration not stated) = 6, 5, -43, /, /, 2336, -0.5
Shown for CC(=NNC(=O)CNC(=O)C1COc2ccccc2O1)c1ccc2c(c1)OCCO2 (configuration not stated) = -4, /, /, 7, -5, /, 1.0
Shown for CCOC1OC(C(=O)N2CCCCCCC2)=CC(c2ccc(C(F)(F)F)cc2)C1CCCO (configuration not stated) = 6&-13, /, /, 4&7, 19&6, /, 6.8&7.4

(list continues)
SMILES | Sa ugtP lethal | BJeLR lethal | PrP 5UTR inh | Mtb hypoxia rep | Mtb hypoxia rep growth | Bead autofluor | RN4220 kill
Cc1ccc(-c2cc(C(=O)Nc3cccnc3)c3ccccc3n2)s1 | -5 | -1 | -6 | 7 | 3 | 5364 | -5.5
CC(=O)c1ccc(NC(=O)CN2C(=O)/C(=C/C=C/c3ccccc3)SC2=S)cc1 | / | -1 | -9 | / | / | 3500 | /
CC(/C=C/c1ccc2c(c1)OCO2)=N/NC(=O)COc1ccc(C)cc1 | / | 2 | -22 | / | / | 2524 | /
COc1ccc(-n2c3c(cc(C(=O)Nc4ccc(C)cc4)c2=O)C(=O)CCC3)cc1 | 2 | / | -8 | / | / | 2131 | -0.7
CCCCNC(=O)c1cc2c(=O)n(CC)c3ccccc3c2s1 | 17 | 0 | -5 | 10 | 13 | 3581 | -0.7
COc1cc(C(=O)CSc2nncn2C)cc(OC)c1OC | -2 | 1 | -4 | 9 | 3 | 2901 | -5.3
COc1ccc(CNC(=O)c2cccc3c2C(=O)N(Cc2cccnc2)C3)cc1 | 7 | 1 | 0 | / | / | 3588 | 2.9
COc1ccc(N2CCN(C(=O)c3ccc(CS(=O)Cc4ccc(Cl)cc4)o3)CC2)cc1 (configuration not stated) | 99* | -14 | -7 | 1 | 9 | 5378 | -8.0
COc1cccc(-c2nc3ccc(C(=O)N4CCCC(O)C4)cc3o2)c1 (configuration not stated) | -8 | 7 | -39 | -1 | -5 | 4204 | -7.6
COC(=O)c1cc2c(-c3ccccc3)cc3ccccn3c-2c1C(=O)OC | -10 | -1 | -4 | 14 | 1 | 2429 | -11
Cc1cc(N)n(-c2ccccc2C)n1 | 4 | 3 | -34 | -5 | 1 | 4551 | 1.8
CN(C)c1ccc(C(CNC(=O)c2ccco2)N2CCCC2)cc1 (configuration not stated) | 4 | 7 | -24 | 9 | 9 | 4703 | 0.7
Cc1csc2c(N3CCN(C(=O)c4ccc(C(C)(C)C)cc4)CC3)ncnc12 | 0 | 8 | -15 | 4 | -4 | 6266 | 5.7
CN(C(=O)COC(=O)C1CSC2(C)CCC(=O)N12)c1ccccc1 (configuration not stated) | 3 | 4 | -22 | 8 | 0 | 4433 | 2.0
Cc1ccc(-n2c3c(cc(C(=O)N4CCN(C)CC4)c2=O)C(=O)CC(C)(C)C3)cc1 | 2 | -8 | -19 | 10 | 6 | 9464 | 2.7
COC(=O)CCCCCCCCC(O)CN(C)C (configuration not stated) | -4 | 14 | 3 | 11 | 2 | 4621 | 10
Cc1ccsc1/C=N\NC(=O)Cn1nnc2ccccc21 | / | -2 | -26 | / | / | 2058 | /
COC(=O)c1c(NC(=O)c2nc3nc(C)cc(C(F)F)n3n2)sc2c1CCC2 | -3 | -8 | -19 | -5 | -6 | 9058 | 0.8
CCOC(=O)CNC(=O)CSc1nnc(-c2ccc(OC)cc2)n1CC | -2 | -1 | -40 | 0 | 2 | 4720 | 0.3
CC(=O)Nc1ccccc1C(=O)OCC(=O)Nc1ncccn1 | 13 | -1 | -17 | 10 | 8 | 3517 | 1.5
O=C(CSC(=O)c1ccccc1)Nc1ccccc1F | 1 | / | -4 | 8 | -1 | 3820 | 1.8
C/C(=N\NC(=O)c1cccs1)c1c(O)cc(C)oc1=O | / | -6 | -11 | / | / | 5554 | /
CC(=O)c1sc(NC(=O)COc2ccc(C(C)C)c(C)c2)nc1C | -3 | 8 | -15 | -4 | 4 | 3784 | 4.2
CC(=NNC(=O)c1ccccc1)c1c(C)[nH]n(-c2ccccc2)c1=O | -7 | / | / | 7 | 18 | / | 7.5
Cc1cc2oc(=O)cc(CN3CCCCC3)c2cc1C(C)C | 2 | 2 | 1 | / | / | 6695 | 6.5
O=C(Nc1cccc([N+](=O)[O-])c1)N1CCN(c2ccccc2)CC1 | 2 | 18 | -9 | 7 | 11 | 4467 | 1.9
O=C(CSc1nccc2ccccc12)N1CCN(Cc2ccc3c(c2)OCO3)CC1 | 5 | -10 | -1 | 13 | 6 | 3660 | 2.5
COCCCNS(=O)(=O)c1ccc2[nH]c(=O)[nH]c2c1 | 5 | 12 | -29 | 11 | -5 | 4276 | 5.9
CCOc1cc(/C=C(\C#N)C(=O)Nc2ccc(S(N)(=O)=O)cc2)ccc1OCCN1CCOCC1 | 0 | -4 | -22 | 7 | -1 | 5844 | -0.2
COc1cccc(NS(=O)(=O)c2ccc3[nH]cc(C(=O)NC4CC4)c(=O)c3c2)c1 | -3 | 9 | -1 | 1 | 15 | 2266 | -2.4
CCOC(=O)Cc1csc(N)n1 | 9 | -15 | / | 5 | 5 | 7752 | 3.3

High-throughput results from PubChem.
